Autofluor counter: compound fluorescence in toxin protease inhibitor counterscreen; compound autofluorescence counterscreen, microsphere flow cytometry; stronger effect = higher value; fluorescence intensity (no concentration beside the values); AID 624483; 360,000 compounds, 3.1% hits;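 active = at least 3 SD above the mean of all compounds, about 16000 in these data; inconclusive = too few beads counted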;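 note: 100 nL of 1 mM stock went into each well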
BJeLR lethal: kills HRASV12-expressing BJeLR cells | 300,000 compounds, 0.17% hits | inhibition, % (concentration not given with the values) | AID 1554 | BJeLR (HRASV12) viability, CellTiter-Glo ATP luminescence, 48 h; reference of the scale not given here;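 active = replicate mean above 50%; inconclusive = above 50% but judged a plate artefact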;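 note: 50 nL library stock added to about 25 µL; numbers are from one replicate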
Sa RN4220 lethal: S. aureus RN4220 growth inhibition | OD600, 16 h | inhibition, % (no concentration beside the values) | 330,000 compounds, 0.33% hits | AID 1259311;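 active = z-score of -3 or lower and OD600 up to 0.18 on both plates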;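 note: plate controls were untreated cells for no effect and reference antibiotic for full effect; stock transfer was 100 nL into about 80 µL; one replicate is shown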
Mtb hypoxia rep: Mtb hypoxia fluorescent reporter inhibition; fluorescence inhibition, % (test concentration not listed); 300,000 compounds, 0.1% hits; M. tuberculosis hypoxia-regulated fluorescent reporter, fluorescence;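 active = 35 to 45% if threefold the growth effect, above 45% if 1.5-fold the growth effect; inactive = the rest, general growth blockers included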;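 note: wells of about 50 µL received 100 nL stock; 0% = vehicle wells and 100% = reference inhibitor wells; whole bacteria with a GFP reporter of the hypoxia response; strong numbers were not always called active; many hits fall short of the cut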
ugtP null kill: compounds lethal to S. aureus RN4220 ugtP deletion mutant; OD600 growth, 16 h; some inactives read as strong as hits; growth inhibition, % (test concentration not listed); 330,000 compounds, 0.54% hits;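 active = z-score under -3 and OD600 up to 0.15 on both plates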;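 note: plate controls were untreated wells for no effect and antibiotic for full effect; wells of about 80 µL received 100 nL stock; the first replicate is given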
PrP 5UTR inh: inhibition of PrP 5' UTR reporter expression; cell-based PrP 5' UTR mRNA reporter, plate reader; 340,000 compounds, 0.35% hits; inhibition, % (test concentration not listed);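 active = every replicate at 50% or more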;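 note: 0 = median of the neutral control wells; tested in H4 reporter cells; numbers are from one replicate; inactives centre near -14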
Mtb hypoxia rep growth: recorded beside Mtb hypoxia rep, whose call it bears; growth inhibition, %; measured here: M. tuberculosis growth (absorbance);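 0% = vehicle and 100% = reference antibiotic; read after six days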
* marks the source's active call; other numbers are inactive results; ? = inconclusive; . = not tested or not shown.

SMILES	Autofluor counter	BJeLR lethal	Sa RN4220 lethal	Mtb hypoxia rep	Mtb hypoxia rep growth	ugtP null kill	PrP 5UTR inh
CCOC(=O)c1ccc(NC(=S)N2CCN(C)CC2)cc1	3738	10	-0.8	6	-1	3	-4
COc1ccc(CCNCC(=O)Nc2ccc(C)c(S(=O)(=O)N(C)C)c2)cc1OC	5510	5	2.3	-3	-7	0	-28
O=C(COC(=O)c1cccnc1Cl)c1ccc2c(c1)OCCO2	4456	5	13	2	2	7	-30
CCOc1ccccc1NC(=O)c1ccc2[nH]c(C)c(C)c2c1	5769	-7	0.2	.	.	-1	-39
O=C(COC(=O)c1cccc(F)c1)Nc1cccnc1Cl	4287	.	13	4	12	5	-11
COc1ccc(C(=O)NCC(=O)OCc2nc(N)nc(Nc3ccccc3C)n2)cc1	3975	.	2.8	0	10	2	-7
COc1cc(C(=O)Oc2ccccc2C=NNC(=O)c2ccc(C)cc2)cc(OC)c1OC	.	.	12	5	-5	-6	.
CCOC(=O)C1(CC2CC2)CCN(Cc2cn[nH]c2-c2cccc(F)c2)CC1	2168	-1	-3.1	-3	0	-13	-28
O=C(COC(=O)c1cccnc1Cl)c1ccccc1	11114	3	0.3	-9	6	-3	.
CN1CCN(C(=S)NC(=O)c2ccc(C(C)(C)C)cc2)CC1	6948	-16	-1.5	1	-1	0	-30
O=[N+]([O-])c1cnc2ccccn12	6305	-1	4.1	13	4	8	-27
CC(C)c1ccc(NC(=O)c2ccc3snnc3c2)cc1	4969	6	5.0	12	10	12	-48
COc1ccc(CSCC(=O)N/N=C/c2ccccc2O)cc1	3501	0	.	.	.	.	4
C#CCOCCOCCOCCNc1nc(N2CCOCC2)nc(N2CCN(C(=O)[C@H]([C@@H](C)O)n3cc(CCCCN)nn3)CC2)n1	2991	-2	.	.	.	.	3
CCCc1cnc(N2CCN(S(C)(=O)=O)CC2)nc1	5425	-5	2.5	-3	-2	7	-34
O=C(Nc1cccc(Cl)c1N1CCOCC1)c1cccnc1	3911	-6	3.2	10	8	12	-10
COc1ccc(C=Nn2cnc3scc(-c4cccs4)c3c2=O)cc1OC	.	.	3.1	6	-1	4	.
O=C1Nc2ccc(S(=O)(=O)NCCCO)c3cccc1c23	3844	-4	-1.0	-8	-6	-1	-11
OC1CCCN(Cc2cccc3ccccc23)C1 (configuration not stated)	11417	.	2.5	-8	-1	3	-33
COC(=O)c1c(NC(=O)/C=C/C(=O)O)sc(C)c1-c1ccc(C)cc1	4463	9	12	6	-3	24	-5
CC(=O)Nc1c2c3c(cccc3n(C)c1=O)C(=O)c1ccccc1-2	3287	5	-6.9	-4	5	-9	-15
COCCCNc1nc2c(c(=O)n(C)c(=O)n2C)n1Cc1cccc(OC)c1	4556	1	0.0	.	.	-8	-14
Cc1cccc2c1-c1sc(C(=O)NCCCN3CCCC(C)C3)cc1CO2 (configuration not stated)	5655	7	-8.2	12	12	4	-11
Cc1ccc(N2CC(C(=O)Nc3nc4ccc(S(C)(=O)=O)cc4s3)CC2=O)cc1 (configuration not stated)	6041	1	3.9	-6	2	-3	-11
CCOC(=O)C1(C)/C(=N/Nc2ccccc2OC)C(=O)C(=O)N1c1ccccc1 (configuration not stated)	2423	.	14	13	5	5	-4
CCCc1ccc(Oc2cc(Cl)nc(N)n2)cc1	2481	-9	5.1	9	9	7	-61
Cc1cccc(-c2noc(CCC(=O)NCc3ccco3)n2)c1	10512	-6	-2.5	3	3	4	.
Cc1ccc2nc(NCc3ccccc3)c(C=NCc3cccnc3)c(=O)n2c1	.	6	6.6	6	0	13	-22
CC(c1ccccc1)n1cc(C(=O)NCc2ccccn2)nn1 (configuration not stated)	3654	-3	5.3	10	11	14	-4
Cc1cc(C)n(CCC(=O)N2CCN(S(=O)(=O)c3ccccc3)CC2)n1	3759	-3	3.7	4	-3	10	-19
COc1ccc(C=CC(=O)c2ccc(OC)c(OC)c2O)cc1OC	3473	.	5.9	16	12	0	-10
CC(CN1CCCCC1)OC(=O)c1ccc2c(c1)OCO2 (configuration not stated)	2551	-5	1.8	-2	-12	4	-6
CCCCn1c(N)c(N(CCOC)C(=O)CCNC(=O)c2ccccc2Cl)c(=O)[nH]c1=O	5594	-5	-0.2	5	7	-1	-32
Cc1ccc(S(=O)(=O)N2CCN(C(=O)COC(=O)COc3ccccc3)CC2)cc1	20093*	2	12	2	13	-11	-8
O=C1NC(=O)C(=Cc2csc3ccccc23)C(=O)N1	3113	3	.	.	.	.	5
Cn1ccnc1CN1CCN(C(=O)c2cc(COc3ccc(F)c(F)c3)on2)CC1	5099	2	0.5	3	-18	10	-18
COc1ccc(C2CC3(O)NC(=O)C(C#N)(C3C)C2(C#N)C#N)cc1 (configuration not stated)	.	-6	2.5	5	-8	8	.
Cc1cc(C)n(-c2cc(Cl)ccc2[N+](=O)[O-])n1	1953	-7	3.5	0	4	2	-22
COc1cccc(F)c1C(C[N+](=O)[O-])c1c(N)n(C)c(=O)n(C)c1=O (configuration not stated)	3017	-2	33	.	.	-4	1
CS(=O)(=O)N1CCN(C(=O)c2ccncc2)CC1	3022	3	-12	17	5	-2	-16
Cc1coc2c(C)c3oc(=O)c(CCC(=O)N4C[C@H]5C[C@@H](C4)c4cccc(=O)n4C5)c(C)c3cc12	5401	-9	6.4	.	.	-7	-7
O=C(NCc1ccc2c(c1)OCO2)c1cc([N+](=O)[O-])ccc1N1CCOCC1	3729	.	2.0	3	3	4	-23
CC(=O)c1sc(NC(=O)c2ccccc2F)nc1C	6469	18	2.0	10	10	6	-56
CC(OC(=O)N(C)Cc1ccccc1)C1O[C@]2(C)CCCCC1O2 (some centres not stated)	.	.	9.8	7	12	9	.
CNC(=S)N/N=C(\C)c1ccc2c(c1)OCCO2	2456	-2	.	.	.	.	-18
COc1cccc(/C=C/C(=O)OCC(=O)NC2CC2)c1OC	3547	.	3.2	13	4	5	-27
CC(C)(C)NC(=O)/C=C/c1ccc(C(F)(F)F)cc1	2853	-1	.	.	.	.	-14
COc1ccc(N=C2SC(C(N)=O)CC(=O)N2CCc2ccc(OC)c(OC)c2)cc1 (configuration not stated)	2965	0	3.3	-4	4	-5	-15
O=C1CSC(c2cccnc2)N1c1ccccc1 (configuration not stated)	5962	-6	0.8	0	-4	1	-26
Cc1nc(NC(=O)c2ccccc2O)sc1C	3425	-6	6.2	1	4	-3	-69
O=C(O)COc1cnc2ccccc2n1	3711	-6	8.5	6	-7	18	-12
Cc1ccc(NC(=O)C2CC(O)CN2C(=O)OCc2ccccc2)cc1C (configuration not stated)	5659	-11	5.2	7	5	8	-15
NCC(O)COc1ccc2c(c1)OCO2 (configuration not stated)	2674	-6	1.1	.	.	2	3
Cc1ccc(CN(CC(O)COc2cccc3[nH]cc(C)c23)C(C)(C)C)cc1 (configuration not stated)	3980	-22	8.2	10	-4	10	-9
O=C(NCCc1c[nH]c2ccccc12)/C(=C\c1cccnc1)NC(=O)c1cccs1	2455	6	-0.6	6	1	7	-24
Cc1cccc(OC(C)C(=O)Nc2ccccc2C(=O)N2CCCCC2)c1 (configuration not stated)	?	-7	.	.	.	.	-6
CC(=O)OCP(C)(=O)COC(C)=O	2142	2	1.3	.	.	10	-11
O=C(NC(=S)Nc1nc(-c2cccc3ccccc23)cs1)c1cc2ccccc2o1	2117	-8	.	.	.	.	-20
CC(C)(C)c1ccc(C(=O)N2CCC(C(=O)NCc3ccncc3)CC2)cc1	4576	-2	0.4	.	.	3	-33
O=C(COc1ccc(Cl)cc1)Nc1cccc(S(=O)(=O)NC2=NCCCCC2)c1	6563	5	5.1	5	3	5	-10

A second format for three compounds above:
| Molecule | Autofluor counter | BJeLR lethal | Sa RN4220 lethal | Mtb hypoxia rep | Mtb hypoxia rep growth | ugtP null kill | PrP 5UTR inh |
| --- | --- | --- | --- | --- | --- | --- | --- |
| O=C(O)COc1cnc2ccccc2n1 | 3711 | -6 | 8.5 | 6 | -7 | 18 | -12 |
| O=C(NCCc1c[nH]c2ccccc12)/C(=C\c1cccnc1)NC(=O)c1cccs1 | 2455 | 6 | -0.6 | 6 | 1 | 7 | -24 |
| NCC(O)COc1ccc2c(c1)OCO2 (configuration not stated) | 2674 | -6 | 1.1 | . | . | 2 | 3 |

(cont.)
SMILES	Autofluor counter	BJeLR lethal	Sa RN4220 lethal	Mtb hypoxia rep	Mtb hypoxia rep growth	ugtP null kill	PrP 5UTR inh
COC(=O)C1=C(C(=O)OC)C2N(C)c3ccc(OC)cc3[C@@]23CC(C(=O)OC)N(S(=O)(=O)c2ccc([N+](=O)[O-])cc2)C3=N1 (some centres not stated)	.	.	2.6	1	-10	3	.
CSCc1c(C(=O)NC2CCCc3ccccc32)oc2ccccc12 (configuration not stated)	4710	-3	-9.1	.	.	14	-25
Cc1nc2sccn2c(=O)c1S(=O)(=O)NCCc1ccc(Cl)cc1	5316	5	0.2	-10	5	1	-5
Cc1ccc(NC(=O)c2cc([N+](=O)[O-])ccc2N2CCOCC2)cc1C	5236	-5	2.0	13	9	7	-28
CCOc1ccc(CC2S/C(=N/N=Cc3ccco3)NC2=O)cc1 (configuration not stated)	.	.	3.7	5	1	1	.
COc1cc(C=NNC(=O)c2cccc(NC(=O)c3ccccc3C)c2)ccc1O	.	.	-2.5	3	-4	6	.
COC(=O)Cc1c(C)c2ccc(OC3CCCCC3=O)c(C)c2oc1=O (configuration not stated)	3913	12	-2.2	18	7	0	-33
CCN1CCN(C(=O)/C=C/c2ccc(OC)c(OC)c2)CC1	3262	-16	1.9	5	11	12	-23
CN(C)c1ccc(C=NNC(=O)c2ccccc2Cl)cc1	.	.	1.5	7	24	11	.
CCN1CCN(C(c2cccs2)C(C)NC(=O)Oc2ccccc2)CC1 (configuration not stated)	5239	-4	-15	7	10	-4	-20
CCOc1ccccc1Oc1coc2cc(OC(=O)N(C)C)ccc2c1=O	3681	2	3.3	-3	5	-1	-21
CCCCOc1ccc(NC2=NC3(CCCC3)N=C(N)N2)cc1	3712	-14	-0.7	8	8	-19	-17
O=C(O)[C@H](Cc1ccccc1)NC(=O)N1CCN(c2ccc(F)cc2)CC1	4048	2	2.6	12	9	2	-9
CCOC(=O)N1CCN(c2nc3ccccc3n3cnnc23)CC1	4667	-12	.	.	.	.	-21
Cc1noc2ncnc(N3CCN(c4cccc(Cl)c4)CC3)c12	4525	9	2.3	14	16	18	-18
COc1cc(/C=C/C(=O)c2ccc(F)cc2)cc(OC)c1OC	4454	4	6.8	10	13	8	-24
O=C(c1ccncc1)N1N=C(c2ccc(Cl)cc2)CC1c1ccccc1O (configuration not stated)	8155	-6	1.3	0	-5	-12	-63
CCOC(=O)/C(=N\Nc1ccccc1)P(=O)(c1ccccc1)c1ccccc1	3204	4	.	.	.	.	-17
CN(C(=O)COC(=O)C1CCN(S(=O)(=O)c2ccc3c(c2)OCCO3)CC1)c1ccccc1	5909	-1	0.7	5	6	1	-14
Cc1ccc(C(=O)Nc2ccccc2C(=O)NCc2ccco2)cc1S(=O)(=O)N1CCCCC1	9133	-2	-3.1	4	5	-19	-22
O=C(CSc1n[nH]c(-c2ccco2)n1)Nc1ccc(Br)cc1	5640	9	.	.	.	.	-23
Cc1cccc(C=Nc2sc3c(c2C(=O)OC(C)(C)C)CCN(C)C3)c1O	.	.	2.6	7	12	6	.
CCn1c(=O)n(CC)c2cc(N3CCCC3)c(NC(=O)c3ccc(C)c([N+](=O)[O-])c3)cc21	4215	-5	2.7	4	2	-2	-17
Cn1c(CSc2nc3ccc(Br)cc3[nH]2)nc2ccccc21	8890	-8	-7.2	12	8	-10	-15
c1ccc(-c2nc[nH]c2-c2ccccc2)cc1	11000	-10	6.0	13	4	-5	4
COc1ccc(NC(=S)NC(=O)c2cccnc2)cc1	.	-3	1.9	14	9	11	-21
O=C(O)Cc1ccc(NS(=O)(=O)c2c(Cl)cccc2Cl)cc1	4084	8	5.4	10	14	3	-22
O=C1OC(CC(=O)N(Cc2nnc(-c3ccccc3Cl)o2)C2CC2)c2ccccc21 (configuration not stated)	3830	.	-1.0	0	3	8	-25
Cc1nc2cc(NC(=O)COc3ccc(C#N)cc3)ccc2n1-c1ccccc1	5179	-6	-1.3	7	7	17	-24

Screening results deposited in PubChem by several laboratories.
